# Compound activity from PubChem.
# gsp antagonist: antagonists of gsp mutant (McCune-Albright syndrome) | Potency, µM (series often up to 76.9 µM), for inactives: top-dose activity change, negative = inhibition, most hits filed as inhibitors | 0.4% of 340,000 active | gsp-mutant cells, cAMP HTRF, 30 min; control for the full effect not named in the record; active = falling curve of any shape with a large fitted effect; inconclusive = falling curve, mostly with a smaller effect; inactive = flat or rising curve; cell line not stated here;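 also: intracellular cAMP measured with PDE inhibitor Ro 20-1724 present during compound exposure; potency is read from the fitted curve at half-maximal effect; % is scaled to controls: 0 for no effect and ±100 for the full control effect; nearly all actives have a fitted effect of over 65% in size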
#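 HTRF cAMP read-out (cAMP-d2 plus anti-cAMP antibody-K in lysis buffer, 30 min RT). Before lysis, cells are exposed to compounds with […] for 30 min at 37C in DPBS containing Ca/Mg, BSA and Tween 20.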
# TRPV1 potentiator: enhances activation of the human vanilloid receptor TRPV1 | Q8NER1 | TRPV1-expressing cells, Fluo-8 calcium influx, capsaicin EC20 potentiation; host cell line not named in the record; control for the full effect not named in the record | potentiation, % at 8.33 µM | 0.02% of 320,000 active | AID 540277; active means potentiation above 80%; inconclusive means 30% to 80%; inactive means below 30%; also: 0% is about no effect
#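 TRPV1-expressing cells were cultured overnight at 35.5C and loaded with Fluo-8 calcium dye for 40 to 90 min at room temperature. After a 10 s baseline, compound was added and calcium influx was read kinetically for 3 min (ex 480/em 520 nm).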
# ClpP mod: qHTS Assay for Activators of ClpP | ATP-dependent Clp protease proteolytic subunit (Bacillus subtilis (strain 168)), P80244 | purified B. subtilis ClpP, FRET peptide cleavage, 20 min | Potency, µM (series often up to 57.5 µM), for the others: top-dose activity change, negative = active | 1.9% of 340,000 active | AID 651965, 2013; active = well fitted falling curve with a large enough effect; inconclusive = small, poorly fitted or top-dose-only effect; inactive = no such curve, though single readings can be large or run the other way; also: potency is read from the fitted curve at half-maximal effect; the source files actives as falling curves though it sought activators and does not explain the sign; nearly all actives have a fitted effect of over 65% in size; many hits overshoot -100%
# Target sequence (P80244 whole entry, looked up): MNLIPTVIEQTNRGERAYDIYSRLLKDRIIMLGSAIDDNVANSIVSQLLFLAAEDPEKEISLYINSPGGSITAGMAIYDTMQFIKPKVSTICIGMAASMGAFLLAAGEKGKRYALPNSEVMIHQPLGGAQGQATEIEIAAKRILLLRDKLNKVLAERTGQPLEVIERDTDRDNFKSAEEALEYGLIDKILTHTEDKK
#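 ClpP 10 microg/mL final, pH 8 Tris/KCl buffer with BSA, glycerol, Tween-20; compound pinned in; FRET-FV substrate; RT 20 min; Ex320/Em430; ΔFRET vs ADEP 5.8 microM, DMSO, no enzyme.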
# Sfp PPTase inh: Sfp phosphopantetheinyl transferase inhibition; Biochemical Sfp PPTase activity, qHTS; Potency, µM, without a hit: max response, negative = inhibition, usual class: inhibitors; AID 1490; 3.5% of 310,000 active; Q9F4F7; active = well fitted inhibition curve with a large enough effect; inconclusive = small, poorly fitted or top-dose-only effect, or another doubt; inactive = no such curve, though single readings can be large or run the other way;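 also: the enzyme is Sfp with the accession as filed and its product quenches rhodamine fluorescence; potency is read from the fitted curve at half-maximal effect; 0% = enzyme reaction without inhibitor and -100% = no enzyme wells; top concentration of the series not given in the record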
#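 Step 1, compound plus 15 nM Sfp-PPTase, 15 min, room temperature. Step 2, add rhodamine-CoA (5 uM) and BHQ-2-YbbR (12.5 uM). Step 3, read 525/598 nm fluorescence at 0 and 30 min.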
# gsp agonist: gsp mutant agonism; gsp mutant cells, cAMP HTRF, 30 min; control for the full effect not named in the record; Potency, µM (doses to about 76.9 µM), for inactives: at the highest dose activation (cAMP increase), usual class: activators; 0.13% of 340,000 active; AID 624287; active = well fitted activation curve with a large enough effect; inconclusive = small, poorly fitted or top-dose-only effect, or another doubt; inactive = no such curve, though single readings can be large or run the other way; cell line not stated here;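 also: phosphodiesterase inhibitor Ro 20-1724 added with compounds to block cAMP breakdown; potency is read from the fitted curve at half-maximal effect; nearly all actives have a fitted effect of over 60% in size; about a fifth of the inactives were tested at one dose only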
#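 Cells stably selected in G418 were plated at 2000/well, grown 16-24 hr, then given compounds in DMSO with the PDE inhibitor […] (300 uM solution added) for 30 min at 37C; cAMP was read by HTRF.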
# TRPML1 blocker: inhibitors of human TRPML1 channel; 0.02% of 390,000 active; activity change, negative = inhibition, % (no concentration beside the values); TRPML1-inducible cells, Ca2+ dye fluorescence, FDSS; active compounds read low; inhibition of EC80 agonist-evoked calcium signal; Q9GZU1; in the data active means activity change below about -50%; inconclusive means about -30% to -50%; inactive means above about -30%;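 also: stimulus is agonist 54-4 at its EC80 concentration; % is scaled to controls: 0 for no effect and ±100 for the full control effect; compound concentration not given in the record; the text of the record puts the active cut at -80%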
# Target sequence (Q9GZU1 whole entry, looked up): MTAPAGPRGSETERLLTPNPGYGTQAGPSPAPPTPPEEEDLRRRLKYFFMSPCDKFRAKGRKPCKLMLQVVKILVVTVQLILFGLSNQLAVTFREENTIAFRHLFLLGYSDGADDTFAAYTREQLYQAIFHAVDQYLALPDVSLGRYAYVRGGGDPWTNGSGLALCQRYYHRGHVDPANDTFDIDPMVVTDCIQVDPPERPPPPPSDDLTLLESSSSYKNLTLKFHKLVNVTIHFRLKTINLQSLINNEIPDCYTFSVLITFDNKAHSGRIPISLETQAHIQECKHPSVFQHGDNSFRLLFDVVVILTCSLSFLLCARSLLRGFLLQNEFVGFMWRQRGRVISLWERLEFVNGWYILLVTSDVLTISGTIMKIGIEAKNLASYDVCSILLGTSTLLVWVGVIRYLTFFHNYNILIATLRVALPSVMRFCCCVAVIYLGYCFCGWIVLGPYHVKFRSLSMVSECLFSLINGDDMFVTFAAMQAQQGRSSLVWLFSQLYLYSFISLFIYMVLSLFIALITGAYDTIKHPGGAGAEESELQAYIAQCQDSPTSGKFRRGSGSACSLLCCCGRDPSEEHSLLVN
#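 Tet-induced TRPML1-DL cells loaded with Ca8 no-wash calcium dye were read kinetically on FDSS. Compound addition was followed by EC80 agonist 54-4 (4 uM final); inhibition was read over 110 s.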
# Menin-MLL FL inh: menin-MLL binding inhibition, fluorescein peptide. Fluorescence polarization, fluorescein-MLL peptide displacement from menin. FP activity change, % at 61.4 µM. 290,000 tested, under 10 active; inconclusive = falling polarisation curve, or a change in total fluorescence; inactive = total fluorescence flat and polarisation flat or rising; no compound was filed as active; the % refers to the polarisation; negative = inhibition;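 also: % of control where 0% means no effect; inhibitors lower the polarisation; unlabelled MLL peptide was the positive control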
# Numbers without * were called inactive; u = inconclusive; x = not tested or not shown; & = joins results of further samples; [ ] = remark or other dose. Hits appear at their usual frequency; any-hit rate near 4.9%.
# Each structure is followed by: Sfp PPTase inh | TRPML1 blocker | gsp antagonist | TRPV1 potentiator | Menin-MLL FL inh | ClpP mod | gsp agonist
COc1ccccc1N(CC(=O)N1CCCCC1C)S(=O)(=O)c1ccc(Cl)cc1 (stereo not given)
  x | 4.4 | x | x | x | -0.7% | -106.9%[inhibitor]
Cc1nc(SCC(=O)N2CCC(C(N)=O)CC2)n[nH]1
  6.3% | -1.5 | 18.3% | -27.4 | 8.2 | 1.2% | -1.2%
Cc1ccc(C2(C)NC(=O)N(CC(=O)Nc3cc(S(=O)(=O)N(C)C)ccc3C)C2=O)cc1 (stereo not given)
  -10.2% | 0.7 | -2.8% | 10.6 | -7.4 | x | -31.0%[inhibitor]
CN(Cc1ccccc1)C(=O)c1cccc(NC(=O)Cc2cccc(NC(=O)C3CCN(C(=O)C4CC4)CC3)c2)c1
  x | -9.5 | 2.4% | x | x | -3.0% | x
COc1cc(C(=O)N2CCC(NC(=O)C(Cc3ccc(C)cc3)NC(C)=O)CC2)cc(OC)c1OC (stereo not given)
  12.1% | 0.8 | 10.4% | -7.7 | -1.9 | -1.1% | 12.8%
O=C(C=Cc1cccc(Cl)c1)c1ccccc1
  x | 30.7 | 1.2% | x | x | x | u
Cc1ccc(NC(=O)C(=O)NC(C)C2COc3ccccc3O2)cc1 (stereo not given)
  29.9% | 8.4 | 9.7% | -17.9 | 7.3 | 3.8% | 0.2%
CCOc1ccc(Nc2nc(-c3cccnc3)cs2)cc1
  4.5% | -7.8 | 1.8% | 9.2 | 0.8 | -16.8% | -16.8%[15.4 µM]
CCN(CC)CCNC(=O)c1cn(CC)c2ccc(S(=O)(=O)N3CCOCC3)cc2c1=O
  6.0% | -11.9&4.9 | 0.9% | -13.0 | x | -3.1% | 7.4%
O=C(Nc1ccc(F)cc1)C1CCN(S(=O)(=O)c2cccc3nonc23)CC1
  13.9% | 6.0 | -1.7% | -31.8 | 3.4 | x | -0.6%
CCOc1ccccc1N1CCN(CC(=O)N(CC(C)C)c2c(N)n(CC(C)C)c(=O)[nH]c2=O)CC1
  11.9% | -4.2 | -22.9% | -27.8 | -5.6 | x | -4.1%[15.4 µM]
CCOc1ccccc1NC1c2ccccc2C(=O)N1c1ccc(C)cn1 (stereo not given)
  -8.1% | -3.9 | -8.0% | -7.8 | 2.6 | 0.0% | -15.8%
Cn1ncc(Cl)c1C(=O)NCc1ccc2c(c1)OCO2
  15.7% | -4.6 | -17.5% | 8.2 | x | 0.3% | 21.8%
Cc1ccc(-c2c[n+](CC(=O)Nc3ccc(C)cc3C)c3n2CCC3)cc1
  13.9% | -3.6 | -3.5% | -3.4 | 2.4 | x | -2.8%[15.4 µM]
CC1Cc2nc(SCC(=O)NCC3CCCO3)n(Cc3ccccc3)c(=O)c2S1 (stereo not given)
  2.9% | -1.6 | -0.9% | 0.0 | 2.0 | 0.4% | 3.7%
Cc1ccc(S(=O)(=O)N2CCN(C(=O)COC(=O)CNC(=O)c3ccc(C(C)(C)C)cc3)CC2)c(C)c1
  x | 8.1 | -5.1% | x | x | -2.0% | 27.7%
O=C1Nc2c(Br)cc(Br)cc2C1(O)N1CCOCC1 (stereo not given)
  3.1% | -10.9 | 12.8% | -1.4 | -1.7 | 9.6% | -9.4%
N#CCCN(C(=O)COC(=O)c1ccc(S(=O)(=O)Nc2ccccc2)cc1)c1ccccc1
  u | -5.0 | -8.7% | -1.1 | 2.8 | 0.7% | -27.7%
CC(=O)N1N=C(c2cccc([N+](=O)[O-])c2)OC1(C)CC(=O)Nc1ccccc1 (stereo not given)
  5.1% | -5.9 | 9.2% | 6.5 | 3.4 | -1.0% | -13.4%
COc1cc(CO)c(Br)cc1OCC(=O)Nc1ccccc1C
  -13.4% | 16.5 | 4.3% | -15.3 | 9.9 | x | 6.4%[15.4 µM]
COc1ccc(C(=O)Nc2cccc(-c3ccc(N4CCOCC4)nn3)c2)cc1OC
  x | 8.5 | -1.3% | 11.7 | x | -1.7% | -1.1%
CCC(C)NC(=O)CSc1ccc(S(=O)(=O)N(C)C2CCCCC2)cn1 (stereo not given)
  x | -3.9 | -6.7% | x | x | -0.2% | 3.3%
Cc1c(C(=O)Nc2ccc3c(c2)OCO3)sc2ncn(CC(=O)N3CC(C)CC(C)C3)c(=O)c12 (stereo not given)
  -1.4% | 33.1 | -8.5% | -11.3 | -0.1 | -1.0% | -0.5%
O=C(OC(C(=O)NC1CCCCC1)c1ccccc1)c1ccco1 (stereo not given)
  4.4% | 7.1 | 6.0% | -2.8 | 1.7 | -1.1% | 1.0%
CCOc1cc(N)c(Cl)cc1C(=O)NCC1CN(Cc2ccc(F)cc2)CCO1 (stereo not given)
  -6.9% | 15.2 | -24.6% | x | 7.9&-1.9 | -0.4% | x
CCn1c(=O)n(CC)c2cc(NC(=O)C(C)c3ccccc3)c(Br)cc21 (stereo not given)
  -4.2% | x | -1.7% | 1.6 | -0.1 | -3.1% | -7.3%
COc1ccc(CNC(=O)CSc2nc3nc(C)cc(C)n3n2)cc1
  8.6% | 8.7 | 6.2% | -2.2 | 0.2 | -0.3% | -0.5%
CCCC(=O)c1cc2cc(Cl)ccc2oc1=O
  16.6% | -7.3 | 4.4% | -9.9 | 4.1 | -3.2% | -19.9%
Cc1ccccc1C(=O)N[C@H](C(=O)Nc1ccc(Cl)c(Cl)c1)C(C)C
  -5.8% | 24.1 | -6.9% | -23.4 | 3.2 | 1.0% | -23.8%[15.4 µM]
CCc1ccc(/C(C)=N/NC(=O)c2ccc(-n3cnnn3)cc2)cc1
  x | 5.3 | 0.6% | -2.8 | x | -0.3% | 2.6%

# Looked up by compound from the entries so far:
# Each structure is followed by: Sfp PPTase inh | TRPML1 blocker | gsp antagonist | TRPV1 potentiator | Menin-MLL FL inh | ClpP mod | gsp agonist
O=C1Nc2c(Br)cc(Br)cc2C1(O)N1CCOCC1 (stereo not given)
  3.1% | -10.9 | 12.8% | -1.4 | -1.7 | 9.6% | -9.4%
COc1cc(C(=O)N2CCC(NC(=O)C(Cc3ccc(C)cc3)NC(C)=O)CC2)cc(OC)c1OC (stereo not given)
  12.1% | 0.8 | 10.4% | -7.7 | -1.9 | -1.1% | 12.8%
CN(Cc1ccccc1)C(=O)c1cccc(NC(=O)Cc2cccc(NC(=O)C3CCN(C(=O)C4CC4)CC3)c2)c1
  x | -9.5 | 2.4% | x | x | -3.0% | x
Cc1ccc(NC(=O)C(=O)NC(C)C2COc3ccccc3O2)cc1 (stereo not given)
  29.9% | 8.4 | 9.7% | -17.9 | 7.3 | 3.8% | 0.2%
CCC(C)NC(=O)CSc1ccc(S(=O)(=O)N(C)C2CCCCC2)cn1 (stereo not given)
  x | -3.9 | -6.7% | x | x | -0.2% | 3.3%
Cc1ccccc1C(=O)N[C@H](C(=O)Nc1ccc(Cl)c(Cl)c1)C(C)C
  -5.8% | 24.1 | -6.9% | -23.4 | 3.2 | 1.0% | -23.8%[15.4 µM]

# Next entries.
# Each structure is followed by: Sfp PPTase inh | TRPML1 blocker | gsp antagonist | TRPV1 potentiator | Menin-MLL FL inh | ClpP mod | gsp agonist
CN1CCC(NC(=O)c2cccs2)CC1
  14.4% | -7.9 | 7.9% | 16.5 | 1.0 | 0.9% | -18.6%
COc1ccc(S(=O)(=O)NCC2CCCO2)cc1C(=O)O (stereo not given)
  14.5% | 2.0 | 1.6% | -8.2 | 5.8 | x | 30.1%
Cn1c(=O)c2nc(Cl)c(-c3ccccc3)nc2n(C)c1=O
  -13.5% | 1.9 | 15.1% | 1.3 | -3.0 | 25.1µM* | 11.4%
CC1CC(C)CN(S(=O)(=O)c2ccc(F)c(C(=O)Nc3ccc(Cl)cc3F)c2)C1 (stereo not given)
  20.7% | 0.0 | 0.1% | 3.2 | -1.4 | 7.4% | -22.0%
CN(Cc1ccccc1)C(=O)c1cc(=O)[nH]c2ccccc12
  -4.2% | -6.5 | -3.3% | 4.7 | 0.0 | u | -52.9%[inhibitor]
Cc1ccc(NC(=O)c2scc3c2CCCC3)cc1
  -16.7% | 6.6 | 1.0% | -13.2 | 1.8 | -2.2% | 0.3%[15.4 µM]
CCOc1ccc(CSCCNC(=S)Nc2ccccc2)cc1
  12.8% | -8.4 | -7.0% | -2.3 | 3.4 | -0.9% | -6.2%[15.4 µM]
Cc1ccccc1-c1nc2ccccc2o1
  -6.7% | -2.6 | 3.1% | 15.2 | 5.5 | u | 5.5%
Cc1ccc(S(=O)(=O)N2CCC(C(=O)OC(C)C(=O)N(C)c3ccccc3)CC2)cc1C (stereo not given)
  x | 13.9 | -5.4% | -15.1 | x | 0.1% | -14.0%
CCC(C)c1c(O)nc(SCC(=O)N2CCOCC2)[nH]c1=O (stereo not given)
  -3.9% | 2.5 | 0.6% | -12.4 | -0.8 | -3.1% | 8.9%
COc1cccc(CC(=O)OC(C)C(=O)Nc2ccc(N3CCOCC3)cc2)c1 (stereo not given)
  x | -16.6 | -1.1% | 1.7 | x | x | -12.6%[15.4 µM]
Cc1ccc2c(c1)N(CC(=O)N(Cc1ccc3c(c1)OCO3)CC1CCCO1)C(=O)C(C)O2 (stereo not given)
  1.4% | 12.9 | -12.9% | -19.4 | 0.9 | -1.2% | -49.5%[inhibitor]
CCN(c1ccccc1)S(=O)(=O)c1ccc2c(c1)C(C)(C)C(=O)N2C
  -6.6% | 2.0 | -13.4% | -4.0 | -5.4 | -0.7% | -43.8%[inhibitor]
NC1(C(=O)O)CCCCC1c1ccccc1 (stereo not given)
  x | 7.0 | 9.4% | x | x | 1.9% | -10.4%[15.4 µM]
CCOc1ccc(N2C(=O)CC(N3CCc4ccccc43)C2=O)cc1 (stereo not given)
  21.9% | 23.5 | 5.0% | 6.8 | -1.5 | 0.1% | -32.9%[inhibitor]
CCCCN(CC)CCNC(=O)c1cc2c(=O)[nH]c3ccccc3c2n1C
  11.7% | 4.0&0.4 | 14.2% | 5.8 | -5.7 | 4.2%&3.9% | 12.1%
COc1cc(NC(=O)CCCSc2nc(-c3ccco3)cc(C(F)(F)F)n2)cc(OC)c1OC
  12.0% | 7.2&-0.1 | -0.3% | 4.2 | 1.1 | -0.7%&0.2% | -17.7%
